Screening data as filed in PubChem BioAssay.
CDC25B CDK2 inh: primary biochemical HTRF screen for blockers of M-phase inducer phosphatase 2 binding to CDK2/cyclin A | P30305+P24941 | HTRF CDC25B-CDK2/CyclinA binding, anti-His/anti-Flag; hits give high values | 0.72% of 94,000 active | z-score (concentration not given with the values);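 also: score is relative to mean and SD of negative controls; strong numbers were not always called active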
TAR Tat displ: TAR RNA-Tat peptide displacers, HIV-1, primary screen, biochemical, FRET, FAM/TAMRA-labeled Tat; HIV-1 TAR RNA, Tat peptide displacement FRET; hits give high values; 0.6% of 100,000 active; z-score (concentration not given with the values); AID 1259389, 2018;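 also: score is relative to mean and SD of negative controls; some compounds called inactive have numbers as strong as hits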
Active calls of the source: *; nt = not tested or not shown.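 The calls were made as follows: active = z-score from 3 up in half or more of its runs; inactive = the rest.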

SMILES	CDC25B CDK2 inh	TAR Tat displ
Cc1cc(C)c(S(=O)(=O)NCCc2csc(-c3ccc(F)cc3)n2)cc1C	nt	1.4
O=S(=O)(Nc1nc2ccccc2nc1NCc1ccccc1)c1ccc(Cl)cc1	-0.47	0.78
CN1CCN(c2ncnc3cc4nn(C)cc4cc23)CC1	nt	0.82
Nc1cccc(S(=O)(=O)N2CCC(C(=O)O)CC2)c1	-0.64	0.03
CCOCCCNCc1cccn1-c1sc(C)c(C)c1C(=O)O	nt	0.19
O=C(CCS(=O)(=O)c1cc2c3c(c1)CCN3C(=O)CC2)NCc1cccs1	nt	-0.58
C=CCN1CC(c2nc3ccccc3n2CC(=O)N(c2ccccc2)C(C)C)CC1=O (configuration not stated)	-2.38	2.49
COC(=O)C1=C(C)N(C)C(C)=C(C(=O)OC)C1c1ccc(C(F)(F)F)cc1	-1.51	nt
Cc1ccc(C(=O)Nc2cnc3sc4cc(Cl)ccc4n3c2=O)cc1	0.68	-4.73
O=C(NCCc1ccco1)c1ccc(Cn2nc(N3CCN(c4ccccc4)CC3)ccc2=O)o1	nt	0.96
O=C(Nc1nnc2n1CCS2)C(c1ccccc1)c1ccccc1	nt	0.02
O=C(NCCCn1ccnc1)C(=O)NCc1n[nH]c(=O)c2ccccc12	nt	2.2

New compounds follow.
SMILES	CDC25B CDK2 inh	TAR Tat displ
CCOc1ccc(-c2cccc(NS(=O)(=O)c3cc(Br)ccc3OCC)c2)nn1	nt	0.57
Cc1nnc(SC(C(=O)c2c(C)[nH]c3ccccc23)c2ccccc2)s1 (configuration not stated)	-1.3	1.36
O=C(CCCSc1nc(-c2ccco2)cc(C(F)(F)F)n1)NCc1ccc(F)cc1	-0.16	-0.91
O=C(C1CCN(c2nc3cccnc3s2)CC1)N1CCCCC1	nt	0.63
CCOC(=O)C1=C(NC2CCN(Cc3ccccc3)CC2)C(=O)N(C(C)(C)C)C1	-1.13	nt
CC1CCN(C(=O)C2CCN(C(=O)c3cc4sccc4n3Cc3ccc(F)cc3)CC2)CC1	-1.5	nt
CCCN(CCC)C(=O)Cn1c(=O)n(CCOC)c(=O)c2sc3ccccc3c21	-2.47	2.78
C=CCNC1=C2C[C@@H](C)C[C@H](OC)[C@H](O)[C@@H](C)/C=C(\C)[C@H](OC(N)=O)[C@@H](OC)/C=C\C=C(/C)C(=O)NC(=CC1=O)C2=O	nt	-1.35
O=C(Nc1c(C(=O)N(Cc2ccco2)CC2CCCO2)oc2ccccc12)c1ccccc1 (configuration not stated)	nt	0.64
Cc1ccc2cc3c(nc2c1)N(C(=O)c1ccccc1C)CC3	0.16	-4.11
CCOC(=O)c1sc(NC(=O)c2cc(=O)c3cc(C)ccc3o2)c(C(=O)OCC)c1C	0.7	-0.18
O=C(Cn1c(=O)n(Cc2ccc3c(c2)OCO3)c(=O)c2oc3ccccc3c21)NCCc1ccccc1	nt	1.42

The results go on:
SMILES	CDC25B CDK2 inh	TAR Tat displ
CCOC(=O)C(C)NC(=O)c1nn(C)c2c1COc1ccccc1-2 (configuration not stated)	-2.44	0.31
CCn1c2ccccc2c2nnc(N3CCN(c4ccc(F)cc4)CC3)nc21	-0.26	1.33
Clc1cccc(NCc2ccc3nccnc3c2)c1	nt	1.46
Cc1cccc(C)c1OCc1nnc2c3cnn(-c4ccccc4)c3ncn12	2.67	1.6
CC(=O)Nc1ccc(N2C(=O)CN(S(C)(=O)=O)CC2(C)C(=O)NC2CCCC2)cc1 (configuration not stated)	nt	0.8
COc1ccccc1C1CCN(Cc2ccc3c(c2)CCC(C)(C)O3)CC1	0.45	nt
CCSc1nc(=O)c2c(n1C)NC(=O)CC2c1cc(F)ccc1F (configuration not stated)	-0.66	0.49
Cc1ncc(-c2ccc3ccccc3c2)s1	-2.17	nt
CCCSc1nnc2c(n1)OC(CC)N(C(C)=O)c1ccccc1-2 (configuration not stated)	-2.09	nt
CCCN1CCN(c2nnc(-n3cccc3CN3CCN(Cc4ccccc4)CC3)s2)CC1	nt	1.11
C=CCn1c(=O)c(=O)n(CC(=O)N2CCC(N3CCCCC3)CC2)c2ccccc21	nt	1.45
COc1ccc(/C=C/c2nc(C#N)c(NC3CCCCC3)o2)cc1OC	0.77	1.42

Ordered by molar mass (low to high): part of the list above
SMILES	CDC25B CDK2 inh	TAR Tat displ
Cc1ncc(-c2ccc3ccccc3c2)s1	-2.17	nt
CCCSc1nnc2c(n1)OC(CC)N(C(C)=O)c1ccccc1-2 (configuration not stated)	-2.09	nt
Cc1cccc(C)c1OCc1nnc2c3cnn(-c4ccccc4)c3ncn12	2.67	1.6

Not a retest: seven of the compounds above.
SMILES	CDC25B CDK2 inh	TAR Tat displ
CCOC(=O)C(C)NC(=O)c1nn(C)c2c1COc1ccccc1-2 (configuration not stated)	-2.44	0.31
CCn1c2ccccc2c2nnc(N3CCN(c4ccc(F)cc4)CC3)nc21	-0.26	1.33
Clc1cccc(NCc2ccc3nccnc3c2)c1	nt	1.46
Cc1cccc(C)c1OCc1nnc2c3cnn(-c4ccccc4)c3ncn12	2.67	1.6
CC(=O)Nc1ccc(N2C(=O)CN(S(C)(=O)=O)CC2(C)C(=O)NC2CCCC2)cc1 (configuration not stated)	nt	0.8
COc1ccccc1C1CCN(Cc2ccc3c(c2)CCC(C)(C)O3)CC1	0.45	nt
CCSc1nc(=O)c2c(n1C)NC(=O)CC2c1cc(F)ccc1F (configuration not stated)	-0.66	0.49

Further compounds:
SMILES	CDC25B CDK2 inh	TAR Tat displ
COc1ccc(C2C=C(c3ccc(Cl)cc3)Nc3nc(CCCO)nn32)cc1 (configuration not stated)	-0.86	nt
CC1(C)Cc2nc3oc4c(N(CCO)CCO)ncnc4c3cc2CO1	nt	1.09
O=C(CCc1nc(CN2CCN(S(=O)(=O)c3cccs3)CC2)no1)N1CCCC1	nt	-0.95
COc1ccc(OCCn2c(C)nc3ccccc32)cc1	-0.64	1.28
Cc1ccc2c(c1)C(=O)C(=O)N2Cc1ccccc1OC(C)C	-1.09	1.96
COc1ccc(-c2nnc(SCC(=O)Oc3ccc(C)cc3C)o2)cc1OC	-9.79	0.82
CC1CCCCN1CCCNc1nc2ccccc2c2nc(-c3cccnc3)nn12 (configuration not stated)	-0.8	-0.55
O=C(c1ccc2c(=O)n(Cc3ccc4c(c3)OCO4)c(=O)[nH]c2c1)N1CCN(c2ccccn2)CC1	nt	-0.92
COc1ccccc1-n1c(=O)[nH]c2c(C(N)=O)nc(-c3ccccc3O)nc21	nt	0.24
Cc1ncc(-c2ccc(C)c(S(=O)(=O)Nc3ccc(F)cc3Cl)c2)o1	nt	1.72
O=S1(=O)C[C@H](NCCC2=CCCCC2)[C@@H](S(=O)(=O)c2ccc(F)cc2)C1	-0.76	-3.77
Cc1sc(-c2c(C#N)c(N)nc3c2CCCCC3)cc1Br	-7.15	0.24

The results go on.
SMILES	CDC25B CDK2 inh	TAR Tat displ
COc1cc(Br)c(C2C(C(=O)N3CCOCC3)=C(C)NC3=C2C(=O)CCC3)cc1OC (configuration not stated)	nt	1.49
Cc1nn2cc(-c3ccc(OC(C)C)cc3)nc2s1	-1.94	2.12
CC1CCN(S(=O)(=O)N2CCCC(C(=O)N3CCN(c4ncccn4)CC3)C2)CC1 (configuration not stated)	nt	0.13
CCn1c(C)c(/C=C/c2nc3ccccc3c(=O)n2CCCO)c2ccccc21	-3.3	0.45
CC(C)N1C(=O)c2cc3sccc3n2CC1(C)C(=O)NC1CCCC1 (configuration not stated)	-0.97	0.93
O=C(CSc1nccn(-c2ccc(F)cc2)c1=O)Nc1ccc(F)cc1	nt	-0.67
O=C(NCc1ccco1)c1cnn(-c2ccccc2)c1-n1cccc1	-1.44	0.65
N#Cc1nc(/C=C/c2ccccc2)oc1N1CCN(C(=O)c2ccccc2)CC1	-2.64	-0.98
O=S(=O)(NCc1nc(-c2ccc(NS(=O)(=O)c3cccs3)cc2)no1)c1ccccc1	nt	-0.17
COCCNc1oc2c(c1-c1cccc3ccccc13)c(=O)n(C)c(=O)n2C	nt	-0.83
CN(C)CCNC(=O)c1cc2c(s1)-c1ccc(Cl)cc1S(=O)(=O)C2	-1.9	1.64
O=S(=O)(Cc1ccc(C(F)(F)F)cc1)c1ccc(Cl)cc1	-0.65	nt

Next entries follow.
SMILES	CDC25B CDK2 inh	TAR Tat displ
CC1CCN(C(=O)CN2c3ccc(Br)cc3-c3ccccc3S2(=O)=O)CC1	-1.48	11.8
COc1ccc(CN(C(=O)c2cc(=O)c3cc(Cl)ccc3o2)C2CCS(=O)(=O)C2)cc1 (configuration not stated)	-0.76	0.62
CCCC(=O)Nc1nc2nc(CCC)cc(=O)n2[nH]1	0.43	-0.38
O=C(COCc1cc(-c2ccc3c(c2)OCO3)on1)N1CCN(C2CCCCC2)CC1	nt	1.27
Cc1ccc(C)c(-n2c(=O)c(C#N)cc3c(=O)n4ccccc4nc32)c1	-0.22	-1.21
Cc1sc(NC(=O)c2cccs2)nc1-c1ccc(Cl)c(Cl)c1	-16	nt
Cc1cc(Cl)cc(C)c1OCCn1ccnc1	0.43	-0.31
NC1=NC(c2ccc(Cl)cc2)n2c(nc(=O)c3ccccc32)N1 (configuration not stated)	-1.41	-2.94
Cc1[nH][nH]c(=O)c1C(c1cccc(O)c1)c1c(C)[nH][nH]c1=O	-2.74	0.49
O=C(CC1(O)C(=O)Nc2ccccc21)c1ccc(Br)cc1 (configuration not stated)	0.85	-2.33
O=C(CN1C(=O)c2cccnc2Oc2ccccc21)NCCC1=CCCCC1	nt	0.7
CCOC(=O)C(=O)Nc1sc2c(c1C(=O)OCC)CC(C)(C)OC2	0.85	1.56

(more compounds)
SMILES	CDC25B CDK2 inh	TAR Tat displ
COc1nc(N)nc(C23CC4CC(CC(C4)C2)C3)n1	-2.3	nt
Cc1cc(-c2nnc(SCC(=O)c3ccc(F)cc3)o2)no1	-4.33	1.33
CCOc1cc(C)c(S(=O)(=O)Nc2cc(C)ccn2)cc1C	-1.53	2.75
COc1ccc2[nH]cc(CCNS(C)(=O)=O)c2c1	-0.54	1.52
COC(=O)C12CCC3(SCCS3)C(C(=O)OC)(CCC13SCCS3)C2	-1.06	nt
Cc1cc(=O)[nH]c(-c2ccccn2)n1	-0.51	nt
O=C(CSc1cc(-c2ccccc2)ncn1)OCCOc1ccccc1	-1.7	-0.29
COc1cccc2cc(C(=O)C[n+]3ccc4ccccc4c3)c(=O)oc12	1.91	nt
CCOC(=O)c1noc2ncnc(N3CCN(C4CCCCC4)CC3)c12	nt	0.61
O=C1CC(Cc2ccc(Cl)cc2)C(=O)N1CCc1ccc2c(c1)OCO2 (configuration not stated)	nt	1.12
CCCCSc1nc(-c2ccc(OC)cc2)ccc1C#N	-1.39	-0.48
COc1ccc(N2C(=O)NC3CC2(C)Oc2ccc(Br)cc23)c(OC)c1 (configuration not stated)	0.29	nt

Remaining list, next part:
SMILES	CDC25B CDK2 inh	TAR Tat displ
CCOCCOC(=O)C(C)Oc1ccc2c(=O)c(-c3ccc(Cl)cc3)coc2c1 (configuration not stated)	-0.42	-0.21
CN(Cc1ccccc1)c1ncnc2c1nc1n2CCCC1	nt	1.44
Cc1onc(-c2ccccc2)c1C(=O)Nc1ccc2n[nH]nc2c1	-1.98	nt
CCN(CC)C(=O)c1oc2ccccc2c1NC(=O)COC	nt	0.58
CC1=CC(C)C2COC(c3ccc4c(c3)OCO4)C1C2C (configuration not stated)	-1.01	0.51
COc1ccc(-c2nc3nc(C)cc(N(C)C)n3n2)cc1	-1.03	1.04
Cn1c(=O)n(C)c2cc(N3CCCCC3)c(NC(=O)c3ccco3)cc21	-0.73	1.93
Cc1oc(C)c2c(=O)cc(-c3ccc4c(c3)OCO4)cc(OC(=O)c3ccccc3)c12	-1.55	2.87
CCCCc1nnc(NC(=O)C2CC(=O)N(CCc3c[nH]c4ccc(Cl)cc34)C2)s1 (configuration not stated)	-0.01	-0.99
COc1ccc(Cl)cc1NC(=O)NC1COc2ccccc2C1 (configuration not stated)	nt	0.5
CC1(C)CC(=O)c2cc(C#N)c(=O)[nH]c2C1	-1.14	-1.35
O=C(CSc1nc2c(sc3ccccc32)c(=O)n1Cc1ccco1)NCC1CCCO1 (configuration not stated)	-0.46	nt

Later entries:
SMILES	CDC25B CDK2 inh	TAR Tat displ
Cn1c(=O)c2c(SCC(=O)Nc3cccc(Cl)c3)nc(-c3cccs3)nc2n(C)c1=O	nt	-0.12
O=C(NCc1ccc2c(c1)OCO2)C1=Cc2cc(Br)ccc2OC1	nt	-0.03
Cc1ccc(Cl)cc1NS(=O)(=O)c1cc(-c2onc(C)c2C)ccc1C	nt	1.85
O=C1C(Nc2ccc(F)cc2)=C(N2CCCCC2)C(=O)c2ccccc21	8.02*	nt
CN(C)c1ccc2c3c(ccc(N(C)C)c13)C(=O)OC2	2.29	-8.31
O=C(c1cnc2sc(N3CCCC3)nn2c1=O)N1CCN(c2ccccc2F)CC1	nt	-0.66
O=C(O)c1c[nH]c2ccc(S(=O)(=O)N3CCCC3c3ccco3)cc2c1=O (configuration not stated)	-1.12	5.5*
COc1nnc(OC)c2ccccc12	0.09	1.67
CCOCCCNC(=O)C1=C(C)C(=O)OC12CCN(C(=O)OCC)CC2	nt	1.19
CCCS(=O)(=O)NCCc1cc2c(OC)ccc(OC)c2[nH]c1=O	-1.45	nt
Cn1cnc(S(=O)(=O)Nc2ccc(-c3ccno3)cc2)c1	nt	1.18
COC(=O)c1cc2ccsc2[nH]1	-1.7	0.71

The list continues:
SMILES	CDC25B CDK2 inh	TAR Tat displ
O=C(CSc1nc2ccccc2[nH]1)Nc1ccc2c(c1)oc1ccccc12	-1.48	nt
CC(NC(=O)C(=O)NCCN(C)C)C(c1cccs1)N1CCOCC1 (configuration not stated)	-0.27	0.74
CC(C)(Oc1ccc(Cl)cc1)C(=O)NC1CCCCNC1=O (configuration not stated)	-1.26	nt
O=C(c1ccco1)N1CCN(C(=O)c2nc(-c3cccnc3)no2)CC1	nt	1.7
